SmPrx2 inh = Schistosoma Mansoni Peroxiredoxins (Prx2); Potency, µM; 65,000 compounds, 0.07% hits; S. mansoni Prx2 activity coupled to TGR/GSH (TGR is thioredoxin glutathione reductase), NADPH fluorescence loss, qHTS; some inactives read as strong as hits; Schistosoma mansoni peroxiredoxin 2 (Prx2); AID 448, 2006; active means full or partial inhibition curve with a strong effect at the top dose; inconclusive means weaker partial or single-point curve; inactive means no accepted curve; further: series up to 57 µM; many of its hits are not listed in these tables
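Activity is read as the drop in NADPH fluorescence (365/450 nm), recorded every 30 sec for 8 min after H2O2 addition. Prx2 is coupled to TGR-driven NADPH oxidation through glutathione, in phosphate buffer pH 7.4.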
Anthrax LT inh = qHTS Assay for Anthrax Lethal Toxin Internalization; Potency, µM (top dose mostly 40 µM), for the others: top-dose activity change, negative = inhibition, actives largely listed as inhibitors; 70,000 compounds, 0.67% hits; Cells, anthrax lethal toxin internalization, FRET ratio (460/530); active = well fitted falling ratio curve with the 530 nm signal flat; inconclusive = other ratio curves, or a change in one channel alone; inactive = flat curves in the ratio and both channels; the % refers to the ratio; further: on the % scale 0 is the no-effect control and ±100 the full control effect; nearly all actives have a fitted effect of over 50% in size; tested in ME-180 cells; beta-lactamase reporter
* marks the source's active call; other numbers are inactive results; u = inconclusive; x = not tested or not shown; & = joins results of further samples; [ ] = dose if it differs, or a comment. Potency means the concentration at half of the fitted maximal effect. This is a subset (hit frequency here may not be typical).

Every second line gives: Anthrax LT inh	SmPrx2 inh
O=C(CSc1nccc2ccccc12)N1CCN(c2ccccn2)CC1
  5.01µM*	>57
CCN(CC(=O)Nc1ccc2c(c1)OCCO2)C(=O)c1cccc(S(=O)(=O)N2CCOCC2)c1
  1.1%	>57
CC1CC(c2ccccc2)n2nc(NC(=O)c3cccs3)nc2N1 (configuration not stated)
  -5.9%	>57
CCOC(=O)c1nnn(-c2nonc2-n2cccc2)c1C
  12.1%	>57
COc1cccc(C2CC(=O)Nc3cc(OC)c(OC)c(OC)c32)c1OC (configuration not stated)
  -0.3%	>57
CCCCOC(=O)Nc1nnc(-c2ccccc2OC)s1
  x	>57
c1ccc(Cc2nnc3sc(-c4ccco4)nn23)cc1
  5.2%	>57
CC(C(=O)N1CCOCC1)(c1ccccc1)c1ccccc1
  -2.1%	>57
CCOC(=O)N1CCN(CC(=O)Nc2cc(OCC)ccc2OCC)CC1
  17.4%	>57
COc1ccc(-c2ccc(S(=O)(=O)N3CCOCC3)cc2)cc1
  5.1%	>57
CCNc1ncc2nc(-c3ccccc3)c(=O)n(Cc3cccs3)c2n1
  u	>57
CC1(C)CC(=O)C2(CC3=C(CC(C)(C)CC3=O)O2)C(=O)C1
  9.7%	x
Nc1c(C(=O)NC2CCCCC2)c2nc3ccccc3nc2n1/N=C/c1ccco1
  u	>57
O=C(c1ccco1)N1CCN(C(=O)c2cccn3c(=O)c4c5c(sc4nc23)CCCC5)CC1
  14.5%	>57
O=C(CCc1nc2ccccc2c(=O)[nH]1)OCC(=O)N1CCN(S(=O)(=O)c2ccccc2)CC1
  -10.6%	>57
Cc1ccccc1C(=O)Nc1cccc(NC(=O)Cn2cnc3c(=O)n(C)c(=O)n(C)c32)c1
  -1.1%	>57
Cc1ccnc(NC(=O)CCC(=O)N(CC(=O)NC2CCCCC2)CC2CCCO2)c1 (configuration not stated)
  12.0%	>57
CN(CC(=O)NC1CCCCC1)S(=O)(=O)c1ccc(Br)s1
  u	>57
Nc1ccccc1
  16.9%	x
COc1cccc(OCC(O)CO)c1 (configuration not stated)
  u	>57
O=C(O)/C(Cc1ccnc2ccccc12)=N\O
  -11.6%[8 µM]	>57
CO[C@H]1COC(=O)[C@H](C)NC(=O)C/C=C\[C@@H](C)[C@H](OC)COC(=O)[C@@H](OCc2ccccc2)/C=C\[C@@H]1C
  -8.7%[8 µM]	x
Cn1c(=O)c(-c2cc(F)cc(F)c2)nc2cnc(Oc3ccccc3)nc21
  -2.3%	>57
CC(=O)C1C(=O)C=C(c2ccco2)CC1c1ccccc1 (configuration not stated)
  -4.7%	>57
O=C(O)c1cccnc1SCC(=O)N1CCCCCC1
  u	>57
COc1ccc(-c2nn(-c3ccccc3)cc2C(=O)O)cc1
  8.4%	>57
O=C(Nc1cccc(Cl)c1)N(Cc1nc2ccccc2c(=O)[nH]1)C1CCCC1
  u	>57
O=C(NCS(=O)(=O)c1ccccc1)c1ccccc1
  -8.7%	>57
O=C(c1cccc(F)c1)N1CCCC(C(=O)N2CCCC2)C1 (configuration not stated)
  6.3%	>57
COc1ccc(C(=O)Nn2c(SCC(=O)NCc3ccco3)nc3ccccc3c2=O)cc1
  -8.9%	>57
COc1ccccc1N1CCN(CCCNC(=O)Nc2ccccc2C)CC1
  -13.5%	>57
O=C(NCc1ccncc1)C(F)(F)C(F)(F)C(=O)NCc1ccncc1
  -25.4%	x
CCc1nnc(NC(=O)C2CCCN(c3nc4ccccc4s3)C2)s1 (configuration not stated)
  -2.6%	>57
Cc1noc(C)c1C(=O)NCCCN1CCCC1=O
  u	>57
CC(c1ccc(F)cc1)n1cc(C(=O)NCc2ccc3c(c2)OCO3)nn1 (configuration not stated)
  -3.3%	>57
CCN(Cc1cc2cc(OC)ccc2[nH]c1=O)C(=O)c1ccncc1
  -7.5%	>57
N#CCSc1nc(-c2ccccc2)cs1
  -10.2%	>57
COc1ccc(OC)c2c(N3CCN(C)CC3)cc(C(F)(F)F)nc12
  -5.0%	>57
Cc1ccc(S(=O)(=O)Oc2cc(S(=O)(=O)O)cc3cc(S(=O)(=O)O)cc(N)c23)cc1
  -13.1%[8 µM]	>57
Cc1cccc2cc3ccc4ccccc4c3cc12
  u	>57
CCOc1ccc(C2C(C(=O)NC)=C(C)Nc3nc4ccccc4n32)cc1OC (configuration not stated)
  -6.3%	>57
Cc1ccc(-c2ccc(=O)n(CC(=O)NCCCN3CCCCC3)n2)cc1
  19.2%	>57
Cc1ccc2c(C(=O)CN3CCSCC3)c(C)[nH]c2c1
  -20.6%	>57
Cc1onc(-c2ccccc2Cl)c1C(=O)N1CCCCC1C(=O)O (configuration not stated)
  -7.0%	>57
CCN1CCN(C(=O)c2cc3sccc3n2CC(=O)c2ccccc2)CC1
  -13.3%	>57
O=C(CN1C(=O)c2cccc3cccc1c23)N1CCN(Cc2ccc3c(c2)OCO3)CC1
  -20.0%	>57
CCOC(=O)N1CCC(N2C(=O)c3ccccc3C2Nc2ccc3c(c2)OCCO3)CC1 (configuration not stated)
  1.4%	>57
N=c1n(CCO)c2ccccc2n1Cc1ccccc1
  -1.2%	>57
COC(=O)c1ccccc1NC(=O)CN(C)S(=O)(=O)c1ccc(OC)cc1
  -16.3%	>57
CCCCN(C(=O)NC(=O)Nc1cccc(C)c1C)S(C)(=O)=O
  -11.9%	>57
CCCC(=O)Nc1cccc2c1CCCC2
  u	>57
O=c1[nH]c2c(s1)C(c1ccccc1)C1C3CCC(C3)C1S2 (configuration not stated)
  u	>57
CCN(CCCNC(=O)C1CCC(=O)N1Cc1ccc(C)cc1)c1cccc(C)c1 (configuration not stated)
  2.3%	>57
O=C(c1cccc(F)c1)N1CCc2ccccc2C1
  -1.3%	>57
C=CCNC(=O)c1cnc2n(c1=O)CCS2
  -7.0%	>57
Cc1ccc(C2c3c(-c4ccccc4O)n[nH]c3C(=O)N2Cc2ccncc2)cc1 (configuration not stated)
  x	>57
O=C(CSC1=NS(=O)(=O)c2ccccc21)Nc1ccccc1
  u	>57
CCn1c(SCC(=O)NCc2ccco2)nc2cccnc21
  -24.3%	>57
CN(C)c1nc(OCCOC(=O)c2ccccc2)nc(N(C)C)n1
  -10.5%	>57
COc1ccc2cc1Oc1ccc(cc1)C[C@@H]1c3c(cc(OC)c4c3Oc3cc5c(cc3O4)CCN[C@H]5C2)CCN1C
  u	>57

Going on with the list:
Every second line gives: Anthrax LT inh	SmPrx2 inh
COc1ccc(S(=O)(=O)NCc2ccc(C(=O)N3CCC4(CC3)OCCO4)cc2)cc1
  -8.9%	>57
CC(Nc1ncnc2nc[nH]c12)c1ccccc1 (configuration not stated)
  7.0%	>57
CCOc1ccc(NS(=O)(=O)N(C)C)cc1
  15.3%	>57
NC1=NC(S)C2N=CN=C2N1 (configuration not stated)
  -5.2%	x
COc1ccc(NC(=O)Cn2nnc(C(=O)NCc3cccc(OC)c3)c2N)cc1
  11.2%	>57
COCCNC(=O)CCc1nc(-c2ccccc2)no1
  x	>57
O=C1CC2(CCCC2)CC(=O)N1CCNC[C@H]1COc2ccccc2O1
  u	>57
COC(=O)CNc1c(-c2ccccn2)nc2ccc(Br)cn12
  2.5%	>57
CC(Sc1nnc(COc2ccc3ccccc3c2)n1C)C(=O)O (configuration not stated)
  5.6%	>57
Cc1cc(C(=O)CN2C(=O)C3CC=CCC3C2=O)c(C)n1-c1ccccc1 (configuration not stated)
  4.6%	>57
Cc1c2c(nc3nc4ccccc4n13)CC(C)(C)CC2=O
  3.0%	>57
C1CCC(N=C(NC23CC4CC(CC(C4)C2)C3)N2CCOCC2)CC1
  u	>57
Cc1c(C(=O)Nc2ccncc2)sc2nc(-c3ccc(F)cc3)cn12
  -5.3%	>57
CCCn1c(=O)c(C(=O)Nc2nnc(C)s2)c(O)c2ccccc21
  -6.5%	>57
O=C(NCC1(c2ccccc2)CCOCC1)c1ccc(Br)o1
  -10.8%	x
O=C(COC(=O)c1ccco1)NCc1ccco1
  u	>57
COc1ccc(F)cc1S(=O)(=O)NC1CC(C)(C)NC(C)(C)C1
  -8.8%	>57
CCC1Oc2ccccc2N(CC(=O)Nc2ccccc2OC)C1=O (configuration not stated)
  u	>57
O=C1CCCN1c1ccc(S(=O)(=O)Nc2ccc3c(c2)OCCO3)cc1
  -10.3%	>57
COc1ncc2nc(-c3cc(F)cc(F)c3)c(=O)n(C3CC3)c2n1
  -11.3%	>57
COc1ccc(Br)cc1CNCCSc1nnnn1C
  10.0%	>57
CCN(CC)CCCNC(=O)CC1Sc2ccccc2NC1=O (configuration not stated)
  -9.9%	>57
N=c1c2c(n(Cc3ccccc3)c3c1CCC3)CCC2
  -0.8%	>57
Cc1cc(NC(=O)CS(=O)(=O)c2cn(Cc3ccccc3Cl)c3ccccc23)no1
  u	>57
C#CCN1C(=O)C(O)(CC(=O)c2cc(OC)ccc2OC)c2ccccc21 (configuration not stated)
  -5.4%	>57
CCOC(=O)c1c(CN(C)C)oc2cc(CN(C)C)c(O)c(CSc3ccccc3)c12
  -20.0%	>57
CC(=O)NCCc1ccc(S(=O)(=O)NCc2ccc3c(c2)OCO3)cc1
  7.7%	x
CC(C)C1C(C#N)=C(N)SC(N)=C1C#N
  -20.9%	>57
Cc1ccc(-c2nnc(SCC(=O)N3c4ccccc4NC(=O)C3(C)C)n2N)cc1
  -4.2%	>57
CCCCNC(=O)c1nn(-c2ccccc2OC)c(=O)c2ccccc12
  14.2%	>57

Overlap with the part before: 2 compounds, followed by the next part.
Every second line gives: Anthrax LT inh	SmPrx2 inh
Cc1ccc(-c2nnc(SCC(=O)N3c4ccccc4NC(=O)C3(C)C)n2N)cc1
  -4.2%	>57
CCCCNC(=O)c1nn(-c2ccccc2OC)c(=O)c2ccccc12
  14.2%	>57
NC(=O)c1oc2ccccc2c1NC(=O)CCc1ccccc1
  0.6%	>57
O=C(Oc1ccc(N2C(=O)CCC2=O)cc1)c1ccco1
  u	>57
CC(O)(P(=O)(O)O)P(=O)(O)O
  8.5%[3.58 µM]	>57
CN(C)c1ccc(N)cc1
  u	x
CN1CCN(c2ncc3nc(-c4ccc(Cl)cc4)c(=O)n(-c4ccccc4)c3n2)CC1
  u	>11.4
Cc1occc1-c1nnc(SCC(=O)N2CCOCC2)o1
  -4.9%	>57
COc1cccc(C2CC(c3ccc(C(C)C)cc3)n3nc(N)nc3N2)c1 (configuration not stated)
  -4.6%	>57
O=c1c(-c2ccc(O)cc2)coc2cc(O)cc(O)c12
  u	>57&>57&>57
Cc1cc(SCC(=O)NC(=O)NCc2ccco2)nc2ccccc12
  -9.7%	>57
Oc1c(CN2CCCCC2)cc(Br)c2cccnc12
  u	>57
CCOc1ccc(C2CC(=O)c3c([nH]c(C(=O)OC)c3C)C2)cc1OC (configuration not stated)
  -5.2%	>57
Cc1cc(NC(=O)CSc2cn(CCNC(=O)c3ccc(Cl)cc3)c3ccccc23)no1
  8.6%	>57
C[C@H](N)c1cccc(Cl)c1Cl
  -3.9%	>57
Cc1cc(C(F)F)n2ncc(C(=O)NC3CCCCCC3)c2n1
  u	>57
O=S1(=O)N=C(N2CCN(Cc3ccccc3)CC2)c2ccccc21
  1.5%	>57
COc1ccc(Nc2nc(N)nc(CN3CCC(Cc4ccccc4)CC3)n2)cc1
  -3.8%	>57
CC1=C[N+](=O)c2ccccc2[N+]1=O
  -8.2%[8 µM]	>57
COc1ccc(COC(=O)N/N=C2/C[C@@H](O)[C@@H](O)[C@@H]3[C@@H]4C(=O)N(C5CCCCC5)C(=O)[C@H]4CC[C@H]23)cc1
  -4.5%[8 µM]	x
COc1ccc2c(c[n+](C)c3c4cc5c(cc4ccc23)OCO5)c1OC
  25.1µM*	>57
CC1CN(S(=O)(=O)c2cccc(C(=O)NCc3ccc4c(c3)OCO4)c2)CC(C)O1 (configuration not stated)
  9.3%	>57
Cc1ccc(CCC(=O)Nc2ccc(S(N)(=O)=O)cc2)o1
  -4.0%	>57
COc1ccc(-c2cc(C(F)(F)F)nc(N3CCN(Cc4ccccc4)CC3)n2)cc1OC
  -6.4%	>57
CCn1c2ccccc2c2cc(NC(=O)CSc3nnc(C4CC4)n3Cc3ccco3)ccc21
  u	>57
COc1ccc(-c2nnc3ccc(SCC(=O)N4CCOCC4)nn23)cc1
  -10.0%	>57
Nc1nonc1C(=O)NC(c1ccccc1)c1ccccc1
  -17.1%	>57
COc1cc2cc(CN(CCCO)S(=O)(=O)c3ccccc3)c(=O)[nH]c2cc1OC
  1.2%	x
COCCn1c(=O)c(-c2cccs2)nc2cnc(OC)nc21
  u	>57
O=C(Nc1ccncc1)C1COc2ccccc2O1 (configuration not stated)
  8.4%	>57
CC(C)c1nc(SCC(=O)N2CCCC2)c2ccccc2n1
  -3.0%	>57
COc1ccc(S(=O)(=O)Cc2ccc(C(=O)N3CCN(c4ccc(Cl)cc4)CC3)o2)cc1
  12.6µM*	>57
Cc1ccc(C)c(C(=O)CN2C(=O)CCC2=O)c1
  -5.7%	>57
Cc1cc2c(c(=O)n1Cc1ccccn1)C(C(C)C)C(C#N)=C(N)O2 (configuration not stated)
  u	>57
